Assay outcomes deposited in PubChem by Johns Hopkins Ion Channel Center.
KCNQ2 block = KCNQ2 potassium channel inhibitors, primary screen, cell-based, CHO-K1, FluxOR thallium flux, B-score (AID 2156); O88943; 20 min; hits give low values; only compounds with negative scores are shown here; some inactives read as strong as hits; B-score at 10 µM; 310,000 tested, 1.1% active;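 active = fluorescence ratio B-score at most minus 3 library SDs, with starting brightness B-score within 2 library SDs, cut at about -5.5 in these data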
Target sequence (O88943 whole entry, looked up): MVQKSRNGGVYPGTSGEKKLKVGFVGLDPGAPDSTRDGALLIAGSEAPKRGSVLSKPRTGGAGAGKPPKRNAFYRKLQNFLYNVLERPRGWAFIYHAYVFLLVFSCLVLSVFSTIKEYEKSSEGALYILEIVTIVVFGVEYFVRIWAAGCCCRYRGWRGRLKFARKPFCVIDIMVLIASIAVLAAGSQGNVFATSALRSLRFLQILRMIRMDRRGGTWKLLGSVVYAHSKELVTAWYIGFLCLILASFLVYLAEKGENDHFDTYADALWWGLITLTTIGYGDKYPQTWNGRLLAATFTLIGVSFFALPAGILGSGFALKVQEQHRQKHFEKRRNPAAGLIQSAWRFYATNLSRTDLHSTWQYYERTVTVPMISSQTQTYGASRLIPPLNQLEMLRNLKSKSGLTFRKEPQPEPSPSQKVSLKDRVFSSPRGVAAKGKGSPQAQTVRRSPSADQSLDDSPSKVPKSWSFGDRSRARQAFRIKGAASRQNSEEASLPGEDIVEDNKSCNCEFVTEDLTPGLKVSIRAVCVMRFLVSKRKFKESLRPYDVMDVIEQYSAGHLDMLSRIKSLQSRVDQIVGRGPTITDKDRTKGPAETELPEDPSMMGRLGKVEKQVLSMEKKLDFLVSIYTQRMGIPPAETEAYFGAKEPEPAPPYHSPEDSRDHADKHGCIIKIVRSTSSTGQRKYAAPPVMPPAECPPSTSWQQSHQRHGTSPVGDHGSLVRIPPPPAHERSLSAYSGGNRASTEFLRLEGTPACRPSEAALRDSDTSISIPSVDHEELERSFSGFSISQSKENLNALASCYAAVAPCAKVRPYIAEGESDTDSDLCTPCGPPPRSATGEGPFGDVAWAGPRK
KCNQ2 block baseline = further read-out of KCNQ2 block, marked with its call; B-score; measured here: initial fluorescence intensity artifact check;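 brightness before thallium and not channel activity; 0 = typical well and far values either way flag optical interference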
* = called active by the depositor; i = inactive. Only part of the results is shown; the hit share may differ from the screen's.

no.	SMILES	KCNQ2 block	KCNQ2 block baseline
1	CC(OC(=O)c1nc(-c2ccccc2)n(-c2ccccc2)n1)C(=O)Nc1cc(Cl)cc(Cl)c1 (stereo not drawn)	-6.86*	0.08*
2	COc1ccc(C(=O)NC2CCCc3ccccc32)cc1Br (stereo not drawn)	i	0.51
3	Cc1ccc2oc(C(=O)N(Cc3ccc(N(C)C)cc3)C3CCS(=O)(=O)C3)c(C)c2c1 (stereo not drawn)	i	-1.12
4	Clc1ccc(COc2ccccc2-c2ccnc3ncnn23)cc1	i	1.36
5	CCS(=O)(=O)N1Cc2ccccc2CC1C(=O)Nc1ccc(F)cc1 (stereo not drawn)	i	2.43
6	Cc1cnc(C(=O)OCC(=O)Nc2ccc(C)c(S(=O)(=O)N3CCCCCC3)c2)cn1	i	-0.72
7	Cc1ccc(N=CC=C2OC(C)(C)C(C)(C)O2)cc1	i	-0.57
8	CCC(=O)c1ccc2ncccc2c1	i	0.83
9	COc1cccc(-n2c(CNc3ccc(F)cc3)nnc2SCC(N)=O)c1	i	0.99
10	O=C(Nc1ccc(Cl)cc1)Nc1ccc2c(c1)N1CCN=C1S2	i	1.75
11	Cc1nc2ccccc2c(=O)n1NC(=O)c1ccc(Cl)c([N+](=O)[O-])c1	i	-0.65
12	CCc1ccc2nc(SCC(=O)N(CC)CC)c(C#N)cc2c1	i	1.1

(list continues)
no.	SMILES	KCNQ2 block	KCNQ2 block baseline
13	Nc1nccnc1C(=O)OCC(=O)NCCc1ccc(S(N)(=O)=O)cc1	i	0.59
14	CC(C)Cn1c(=O)c(C(=O)Nc2ccccc2S(N)(=O)=O)c(O)c2ccccc21	i	-0.07
15	OCCN1CCN(c2nnc(-c3ccccc3)c3ccccc23)CC1	i	0.18
16	NC(=O)c1cc(C(=O)Cc2ccc(Cl)cc2)c[nH]1	i	0.02
17	Cc1ccc(C(=O)NC2c3ccccc3-c3ccccc32)cc1	i	-0.09
18	CSc1ncc(Cl)c(C(=O)Nc2ccccc2[N+](=O)[O-])n1	i	-0.26
19	CC(C)=C1C2CCC1C(C(=O)NCCc1ccccc1)C2C(=O)O (stereo not drawn)	i	-0.27
20	CC(C)c1ccc(N(CC(=O)NCCSCc2ccco2)S(C)(=O)=O)cc1	i	-1.57
21	CCOC(=O)c1c(NC(=O)CCN2C(=O)c3ccccc3C2=O)sc(C(=O)OC(C)C)c1C	i	0.03
22	OCC1CCCCN1CCNCc1cn[nH]c1-c1cccc2ccccc12 (stereo not drawn)	i	2.56
23	Cc1cc(C)c(S(=O)(=O)O)c(C)n1	i	-0.31
24	O=C(CCc1nnc(CCCCc2ccccc2)o1)NCc1cc(F)ccc1F	i	-0.96

Quoted from above: compounds 1 to 2
no.	SMILES	KCNQ2 block	KCNQ2 block baseline
1	CC(OC(=O)c1nc(-c2ccccc2)n(-c2ccccc2)n1)C(=O)Nc1cc(Cl)cc(Cl)c1 (stereo not drawn)	-6.86*	0.08*
2	COc1ccc(C(=O)NC2CCCc3ccccc32)cc1Br (stereo not drawn)	i	0.51

Next section.
no.	SMILES	KCNQ2 block	KCNQ2 block baseline
25	CC1Cc2ccccc2N1Cc1nc2cc(Cl)ccc2c(=O)[nH]1 (stereo not drawn)	i	0.55
26	CC(=O)Nc1cc([N+](=O)[O-])ccc1N1CCOCC1	i	0.43
27	CCc1nnc(NC(=O)c2ccncc2)s1	i	-0.48
28	COc1ccc(OC)c(NC(=O)CCn2c(=S)[nH]c3ccccc3c2=O)c1	i	-1.35
29	Cc1ccccc1OCc1ccc(C(=O)N2CCOCC2)o1	i	-1.03
30	CN(C)c1cc(O)c(C(=S)Nc2ccccc2)c(N(C)C)c1	i	0.1
31	O=C(Nc1nc(-c2ccncc2)cs1)c1ccc(S(=O)(=O)N2CCOCC2)cc1	i	-0.52
32	CC(CN(C)Cc1ccccc1)OC(=O)c1ccc2c(c1)OCCO2 (stereo not drawn)	i	-0.04
33	Cc1cc(C)c2c(n1)SCC(=O)N2CC(=O)Nc1cc(F)ccc1F	i	-0.41
34	CN(C1CCS(=O)(=O)C1)S(=O)(=O)c1ccc(N2CCCC2=O)cc1 (stereo not drawn)	i	-0.09
35	COCCn1c(=NC(=O)CSC(C)=O)sc2cc(OC)ccc21	i	2.64
36	Cc1csc(NC(=O)CCc2c(C)nc3cc(-c4cccc(F)c4)nn3c2C)n1	i	-1.62

Next entries follow:
no.	SMILES	KCNQ2 block	KCNQ2 block baseline
37	CC(Oc1ccc(F)cc1F)C(=O)NNC(=S)NCC1CCCO1 (stereo not drawn)	i	-0.13
38	CCCCCCCNC(=O)C1(CC2CC(c3cccc(Br)c3)=NO2)CCN(C(=O)c2cc(OCC)c(OCC)c(OCC)c2)CC1 (stereo not drawn)	i	0.28
39	O=C(CCl)N(c1ccccc1)c1ccccc1	i	-1.71
40	O=C(NN1C(=O)C2C(c3ccccc3)C=CC(c3ccccc3)C2C1=O)c1cccc(Br)c1 (stereo not drawn)	i	0.4
41	O=c1[nH]cnc2sc3c(c12)CCC3	i	-0.27
42	COc1ccc(NC(=O)COC(=O)C(CC(C)C)N2C(=O)C3CC=CCC3C2=O)cc1Cl (stereo not drawn)	i	-1.21
43	Oc1c(I)cc(I)c2cccnc12	i	-0.02
44	O=C(NC(=S)Nc1ccc2oc(=O)ccc2c1)c1ccc(-c2cccc(Cl)c2Cl)o1	i	2.19
45	Cc1cccc(CC(C)NC(=O)c2cc(COc3ccc(C)c(C)c3)on2)n1 (stereo not drawn)	i	0.06
46	CCn1nc(C)c(C(=O)Nc2cc(Oc3ccc(Cl)cc3)cc([N+](=O)[O-])c2)c1C	i	0.03
47	Cc1noc(C)c1C(=O)Nc1cccc2ncccc12	i	-0.75
48	COc1ccc(OC)c(C(=O)COC(=O)CNC(=O)c2ccccc2)c1	i	-0.67

Looked up by structure from above:
no.	SMILES	KCNQ2 block	KCNQ2 block baseline
21	CCOC(=O)c1c(NC(=O)CCN2C(=O)c3ccccc3C2=O)sc(C(=O)OC(C)C)c1C	i	0.03
4	Clc1ccc(COc2ccccc2-c2ccnc3ncnn23)cc1	i	1.36
8	CCC(=O)c1ccc2ncccc2c1	i	0.83
15	OCCN1CCN(c2nnc(-c3ccccc3)c3ccccc23)CC1	i	0.18

Carrying on.
no.	SMILES	KCNQ2 block	KCNQ2 block baseline
49	COc1cccc(-c2cc(=O)c3cc(NC(=O)c4ccc(N(C)C)cc4)ccc3[nH]2)c1	i	0.2
50	CCCSc1nnc(NC(=O)Nc2ccccc2)s1	i	0.01
51	O=C(NC1C(=O)NNC1c1ccc(Cl)cc1)c1ccc(F)cc1 (stereo not drawn)	i	1.08
52	COc1ccc(CN(C)c2nc(-c3cccnc3)nc3ccccc23)cc1OC	i	-2.07
53	Cc1ccc(NC(=O)CN(C)CC(=O)Nc2ccccc2Oc2ccccc2)cc1	i	-0.47
54	CN(C)c1ccc(C(=O)Nc2ccc(O)c3c(=O)cc(-c4ccccc4Cl)oc23)cc1	-5.85*	-2.55*
55	OCCC1CN(Cc2ccc(-n3cccn3)cc2)CCN1Cc1ccccc1 (stereo not drawn)	i	-0.04
56	CC(=O)Nc1ccc(NC(=O)c2ccccc2N(C)S(=O)(=O)c2ccccc2)cc1	i	-0.58
57	CC(=O)NC(=S)NNC(=O)c1ccc(Br)cc1	i	0.66
58	CCN(Cc1ccccc1)S(=O)(=O)c1cc(C(=O)NC2CCCCCC2)ccc1OC	-6.78*	1.89*
59	S=C(Nc1ccccc1)Nc1ccc(Br)cn1	i	-0.83
60	O=C1c2ccccc2C(O)(Cc2ccccc2)N1CCCN1CCOCC1 (stereo not drawn)	i	-0.31

Another view of some results above:
55) OCCC1CN(Cc2ccc(-n3cccn3)cc2)CCN1Cc1ccccc1 (stereo not drawn)
  KCNQ2 block: i
  KCNQ2 block baseline: -0.04

54) CN(C)c1ccc(C(=O)Nc2ccc(O)c3c(=O)cc(-c4ccccc4Cl)oc23)cc1
  KCNQ2 block: -5.85*
  KCNQ2 block baseline: -2.55*

Additional records.
no.	SMILES	KCNQ2 block	KCNQ2 block baseline
61	CCC(C)(C)n1nnnc1C(c1cc2cc(OC)c(OC)cc2[nH]c1=O)N1CCc2ccccc21 (stereo not drawn)	i	0.11
62	Cc1cccc(Nc2c3c(nc4ccccc24)CCC3)c1	i	0.11
63	CCOC(=O)C/C(C)=N\Nc1nc(-c2ccccc2)cs1	i	-2.98
64	Cc1onc(-c2c(Cl)cccc2Cl)c1C(O)c1ccc(F)cc1 (stereo not drawn)	i	-0.23
65	CCn1cc(CN2CCC(n3nccc3NC(=O)c3ccccc3C)CC2)c(C)n1	i	-0.55
66	COc1ccc(NC(=O)C(=O)NCCN2CCN(C(=O)c3ccc(C)cc3)CC2)cc1	i	-1.71
67	O=C(COC(=O)c1ccc[nH]c1=O)NCCc1ccc(Cl)cc1Cl	i	-0.96
68	COCC(C)n1c(SCc2ccc(OC)c(F)c2)nc2ccccc2c1=O (stereo not drawn)	i	-2.68
69	CCN(c1ccc(NC(=O)COC(=O)c2ccc(C)c(S(=O)(=O)N3CCOCC3)c2)cc1)C(C)C	i	-0.68
70	Cc1nn(CC(O)COc2ccc3c(c2)CCC3)c(C)c1C (stereo not drawn)	i	0.59
71	CCCCN(C)C(=O)c1nc2ccccn2c1CNCCCn1ncc2ccccc21	i	-0.04
72	CC1(C(=O)NC2CCCCCCC2)CCC(=O)N1Cc1cccs1 (stereo not drawn)	i	2.84

Next records:
no.	SMILES	KCNQ2 block	KCNQ2 block baseline
73	CN(C)c1ccc(/C=C/C(=O)c2c(O)c3ccccc3oc2=O)cc1	i	10.7
74	COc1cccc(C(=O)Nc2ccccc2OC(F)(F)F)c1	i	-0.68
75	Cc1ccsc1C(=O)N1CCC(N2CCC(C(=O)NCC3CCCO3)CC2)CC1 (stereo not drawn)	i	0.06
76	CN(C)C(CNC(=O)/C=C/c1cccc(Cl)c1)c1ccccc1 (stereo not drawn)	i	-1.55
77	Cc1ccc(CSCc2nc3ccccc3[nH]2)cc1	i	1.37
78	COc1ccc(NC(=O)c2nc(SC)ncc2Cl)cc1	i	0.71
79	Cc1ccc2c(c1)c1c3n2CCCN(Cc2ccccc2)C3CCC1 (stereo not drawn)	i	0.51
80	O=C(O)COc1ccc(NC(=O)C(c2ccccc2)c2ccccc2)cc1	i	-0.27
81	COc1ccc(NC(=O)CSc2nc(C)cc(C(F)(F)F)n2)cc1	i	0.11
82	CCOc1cccc(-c2nc3cc(C)ccc3o2)c1	i	-1.25
83	C=CCn1c(SCC(C)=O)nc2scc(-c3ccco3)c2c1=O	i	-0.15
84	COc1ccc(C2CC(c3cccs3)=NN2C(=O)CSc2nnc(N)s2)cc1OC (stereo not drawn)	i	0.82

Next part:
no.	SMILES	KCNQ2 block	KCNQ2 block baseline
85	CCc1cc(=O)oc2c(C)c(OCC(=O)NCCCN3CCOCC3)ccc12	i	0.72
86	CCCc1nn2c(=O)cc(CSCC(=O)Nc3ccccc3OC)nc2s1	i	0.25
87	N=C1/C(=C\c2coc3ccccc3c2=O)C(=O)N=C2SC(c3ccncc3)=NN12	i	38.5
88	Cc1nc2ccc(S(=O)(=O)NCC(=O)NC(C)c3ccccc3)cc2s1 (stereo not drawn)	i	-1.44
89	O=C(OCc1cc2ccccc2[nH]c1=O)c1cccs1	i	1.09
90	O=C(NN1C(=O)C2CCCCC2C1=O)c1ccco1 (stereo not drawn)	i	-0.01
91	Cc1ccccc1NC(=O)Cc1nc(COC(=O)c2cc(Cl)ccc2O)cs1	i	1.2
92	O=C(CN1C(=O)c2ccccc2C1=O)OCC(=O)c1ccc(F)cc1	i	-0.8
93	COc1cc2c(ccc3cc(OC)c(OC)c(O)c32)cc1O	i	0.37
94	CC(=O)Nc1nc2ccccc2n1Cc1ccccc1C	i	1.63
95	S=C(Nc1ccc(Cl)cc1Cl)Nc1ccccc1Oc1ccccc1	i	0.25
96	O=c1c2cc(N3CCOCC3)ccc2[nH]c(=S)n1CC1CCCO1 (stereo not drawn)	i	-0.25

(continued)
no.	SMILES	KCNQ2 block	KCNQ2 block baseline
97	CC(C)(C)NC(=O)c1ccc2c(c1)N(CC(=O)N1CCN(c3ccc(F)cc3)CC1)C(=O)C(C)(C)O2	i	-0.09
98	CC1CN(C(=S)NC(=O)c2cccc([N+](=O)[O-])c2)CC(C)O1 (stereo not drawn)	i	-0.2
99	COCCCNC(=S)N1CCC(NC(=O)c2ccco2)CC1	i	-1.07
100	Cc1ccc(S(=O)(=O)NCC(=O)OCC(=O)NCCc2ccccc2)cc1	i	0.6
101	CCCCNC(=O)c1onc(CSc2ccc(F)c(F)c2)c1C(=O)O	i	1.68
102	CC1(c2ccccc2)NC(=O)N(CC(=O)Nc2nnc(C3CC3)s2)C1=O (stereo not drawn)	i	0.23
103	O=C(Nc1ccc(OCC(=O)N2CCOCC2)cc1)Nc1cccc(Cl)c1	i	0.03
104	COc1ccc(C(=O)NN2C(=O)C3C(c4ccccc4)C=CC(c4ccccc4)C3C2=O)cc1 (stereo not drawn)	i	0.92
105	Cc1nc(N/N=C/c2ccc(O)cc2O)cc(N2CCOCC2)n1	i	2.62
106	Cc1ccccc1COC[C@H](CC(C)C)N1CCN(C(=O)c2cccc(C(F)(F)F)c2)CCC1=O	-6.86*	-0.91*
107	COc1cccc(-n2c(-c3cccc(S(=O)(=O)N(C)C)c3)n[nH]c2=S)c1	i	0.02
108	Nc1nc(SCC(=O)Nc2ccccc2C(F)(F)F)[nH]c(=O)c1-c1ccccc1	i	0.1

The list continues:
no.	SMILES	KCNQ2 block	KCNQ2 block baseline
109	Cc1ccc(NC(=O)CCNS(=O)(=O)c2ccc3[nH]c(=O)oc3c2)cc1	i	-0.4
110	O=C(CNC(=O)c1ccco1)OCc1c(F)cccc1Cl	i	1.19
111	O=C(CNc1cc(S(=O)(=O)N2CCOCC2)ccc1N1CCCC1)NCc1ccco1	i	-1.01
112	c1ccc(CNc2ccc(CNc3ncn[nH]3)cc2)cc1	i	-1.75
113	COc1ccc(C2=Nn3c(nnc3-c3ccco3)SC2)cc1OC	i	3.96
